Assay outcomes: PubChem BioAssay, Broad Institute
HIV Env fusion: inhibitors of HIV-1 Env-driven cell-cell fusion, primary screen, HeLa-JRFL effector, CEM21 target cells, luciferase; inhibition, % at 12.3 µM; 360,000 tested, 1.1% active; AID 651610, 2012;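 active means mean replicate inhibition score of at least 50 and every replicate individually at or above 50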;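 further: 0% = plate neutral controls and 100% = maraviroc near 300 nM; one replicate is shown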
Starred values were filed as active, the others as inactive; [ ] = another dose, or the depositor's remark.

| canonical_smiles | HIV Env fusion |
| --- | --- |
| CO[C@H]1CN(C)C(=O)c2cc(NC(=O)NC(C)C)ccc2OC[C@H](C)N(CC2CC2)C[C@@H]1C | -18[16.7 µM] |
| O=C(C[C@H]1CC[C@H]2[C@@H](COC[C@H](O)CN2C(=O)Nc2ccc(Cl)cc2)O1)NCCc1ccncc1 | 18[16.7 µM] |
| CO[C@@H]1CN(C)C(=O)c2cc(NC(=O)C3CC3)ccc2OC[C@@H](C)N(C(=O)c2ccccc2F)C[C@H]1C | -17[16.7 µM] |
| COCC(=O)Nc1ccc2c(c1)[C@H]1C[C@H](CC(=O)NCc3cccnc3)O[C@H](CO)[C@H]1O2 | 4[16.7 µM] |
| COc1cccc(C(=O)Nc2ccc3c(c2)C(=O)N(C)[C@@H]2CC[C@@H](CC(=O)NCC(F)(F)F)O[C@H]2CO3)c1 | -12[16.7 µM] |
| O=C(C[C@H]1C[C@@H]2c3cc(NC(=O)CC4CC4)ccc3O[C@@H]2[C@H](CO)O1)NCc1ccc(Cl)cc1 | 5[16.7 µM] |
| C[C@H]1CN([C@@H](C)CO)C(=O)c2cc(NS(=O)(=O)c3ccccc3)ccc2O[C@@H]1CN(C)C | 1[16.7 µM] |
| CCS(=O)(=O)Nc1ccc2c(c1)C(=O)N(C)C[C@@H](OC)[C@H](C)CN(CCC(F)(F)F)[C@@H](C)CO2 | -24[16.7 µM] |
| Nc1nc2cc3c(cc2cc1C(=O)NCCc1c[nH]c2ccccc12)OCO3 | 21 |
| C[C@@H]1CN([C@@H](C)CO)C(=O)c2cccc(NS(=O)(=O)c3ccc(F)cc3)c2O[C@@H]1CN(C)Cc1ccc(Oc2ccccc2)cc1 | -4[16.7 µM] |
| O=C(C[C@H]1C[C@H]2c3cc(NC(=O)c4cccnc4)ccc3O[C@H]2[C@@H](CO)O1)NC1CCCCC1 | -10[16.7 µM] |
| COC(=O)C1=C(C)N(C)C(=NCc2cccc(C(F)(F)F)c2)NC1c1ccccc1 (stereo not given) | 0 |
| CC(=O)N(C)C[C@@H]1OCc2ccccc2-c2ccccc2C(=O)N([C@H](C)CO)C[C@H]1C | -3[16.7 µM] |
| CN(C)C(=O)C[C@H]1CC[C@@H]2[C@H](COC[C@H](O)CN2Cc2ccc(C(F)(F)F)cc2)O1 | -8[16.7 µM] |
| C[C@H](CO)N1C[C@H](C)[C@H](CN(C)S(=O)(=O)c2ccc(Cl)cc2)Oc2ccc(NC(=O)CCCCCC(=O)Nc3ccccc3N)cc2CC1=O | 34[16.7 µM] |

| canonical_smiles | HIV Env fusion |
| --- | --- |
| CCC(c1nc2ccccc2[nH]1)n1c(-c2ccc3cc[nH]c3c2)nc2ccccc21 (stereo not given) | -99 |
| O=C(Nc1ccc2c(c1)[C@@H]1C[C@@H](CC(=O)N3CCCCC3)O[C@@H](CO)[C@@H]1O2)NC1CCCC1 | -17[16.7 µM] |
| O=C(C[C@H]1CC[C@H]2[C@@H](COC[C@@H](O)CN2Cc2cc(F)ccc2F)O1)N[C@@H]1CCN(Cc2ccccc2)C1 | -2[16.7 µM] |
| CC(C)c1ccc(NC(=O)C[C@H]2CC[C@H]3[C@@H](COc4ccc(NC(=O)c5ccno5)cc4C(=O)N3C)O2)cc1 | 14[16.7 µM] |
| C[C@H](CO)N1C[C@H](C)[C@H](CN(C)C(=O)C2CCC2)Oc2cc(-c3ccccc3)ccc2S1(=O)=O | 18[16.7 µM] |
| O=C(C[C@@H]1CC[C@@H]2[C@H](COC[C@@H](O)CN2C(=O)c2cccnc2)O1)Nc1ccc(-c2ccccc2)cc1 | 19[16.7 µM] |
| O=C(C[C@@H]1CC[C@H](NC(=O)C2CCC2)[C@@H](CO)O1)NCC1CC1 | -13[16.7 µM] |
| COCCNC(=O)C[C@@H]1CC[C@H]2[C@@H](COC[C@@H](O)CN2C(=O)c2cc(Cl)cc(Cl)c2)O1 | -2[16.7 µM] |
| C[C@@H]1CN([C@H](C)CO)C(=O)c2cccc(NC(=O)NC3CCCCC3)c2O[C@H]1CN(C)Cc1ccc(C(=O)O)cc1 | -11[16.7 µM] |
| C[C@H]1CN([C@@H](C)CO)C(=O)c2cc(NC(=O)C3CC3)ccc2O[C@H]1CN(C)C | -2[16.7 µM] |
| COC(=O)C1=C(C)N(Cc2cccc(C(F)(F)F)c2)C(=NCc2cc(OC)c(OC)c(OC)c2)NC1c1cccc(F)c1 (stereo not given) | 0 |
| Cc1noc(C)c1C(=O)N(C)C[C@@H]1OCc2ccccc2-c2ccccc2C(=O)N([C@H](C)CO)C[C@H]1C | 37[16.7 µM] |
| COC(=O)C[C@H]1CC[C@H]2[C@@H](COc3ccc(NC(=O)Cc4cccs4)cc3C(=O)N2C)O1 | 17[16.7 µM] |
| CCC/C(=C1/c2ccccc2C(=O)N1c1ccccc1)c1c(C)noc1C | 15 |
| O=C(NCc1ccncn1)[C@@H]1[C@@H](CO)[C@@H]2Cn3c(ccc(-c4ccc(F)cc4)c3=O)[C@@H]2N1CC1CC1 | -2[16.7 µM] |

| canonical_smiles | HIV Env fusion |
| --- | --- |
| O=C1C2C3C=CC(C3)C2C(=O)N1c1ccc(-c2nc(-c3ccccc3)nc3ccccc23)cc1 (stereo not given) | 3 |
| Cc1ccccc1CN1[C@@H](C)[C@H](c2ccccc2)Oc2cccc(N3CCCC3)c2S1(=O)=O | -11 |
| COc1ccc(C(=O)Nc2ccc3c(c2)C(=O)N(C)[C@H]2CC[C@@H](CC(=O)NCC4CC4)O[C@H]2CO3)cc1 | 2[16.7 µM] |
| COC(=O)C1=C(C)N(C)C(=NCc2ccc(C(F)(F)F)cc2)NC1c1cccc(F)c1 (stereo not given) | 21 |
| C[C@H](c1ccccc1)N1C[C@@H](COCc2ccccc2)Oc2cccc(F)c2S1(=O)=O | 14 |
| Nc1ccc2ccc(NS(=O)(=O)N3CCCCC3)cc2c1 | -30 |
| CCC(CC)C(C(=O)NCc1ccccc1)N1CCN(CCN2CCOCC2)CC1 (stereo not given) | -28 |
| S=C1NC2(CCCCCC2)NN1c1ccccc1 | 55* |
| O=C(C[C@@H]1C[C@@H]2c3cc(NC(=O)Nc4ccccc4)ccc3O[C@@H]2[C@H](CO)O1)NCCN1CCCCC1 | -25[16.7 µM] |
| CN1C(=O)c2cc(NS(=O)(=O)c3cccc(F)c3)ccc2OC[C@@H]2O[C@H](CC(=O)N3CCc4ccccc4C3)CC[C@@H]21 | 2[16.7 µM] |
| CN1CCN(C(=O)C[C@@H]2C=C[C@H](NS(=O)(=O)c3cccc(F)c3)[C@H](CO)O2)CC1 | 7[16.7 µM] |
| C[C@@H]1CN([C@H](C)CO)C(=O)CCCn2cc(nn2)CO[C@@H]1CN(C)Cc1ccc(O)cc1 | -21[16.7 µM] |
| C[C@@H]1CN([C@H](C)CO)C(=O)c2c(c3ccccc3n2C)-c2ccccc2CO[C@@H]1CN(C)S(=O)(=O)c1cccc(F)c1 | 95*[16.7 µM] |
| COc1cccc(S(=O)(=O)N(C)C[C@@H]2OCc3ccccc3-c3ccccc3C(=O)N([C@H](C)CO)C[C@@H]2C)c1 | 35[16.7 µM] |
| CCCNC(=O)C[C@@H]1CC[C@H]2[C@H](COc3ccc(NC(=O)c4ccc5c(c4)OCO5)cc3C(=O)N2C)O1 | 23[16.7 µM] |

| canonical_smiles | HIV Env fusion |
| --- | --- |
| COC(=O)c1cc2c(c3c4cc(F)ccc4n(S(=O)(=O)c4ccc(C)cc4)c13)C(=O)N(Cc1ccc(C(F)(F)F)cc1)C2 | -1 |
| O=C(C[C@@H]1C[C@@H]2c3cc(NC(=O)Cc4ccncc4)ccc3O[C@@H]2[C@@H](CO)O1)NCc1ccccn1 | -2[16.7 µM] |
| CC(C)NC(=O)Nc1ccc2c(c1)C(=O)N([C@@H](C)CO)C[C@H](C)[C@H](CN(C)C(=O)NC1CCCCC1)O2 | -13[16.7 µM] |
| CC(C)c1[nH]nc2c1C(c1ccc(F)cc1)N(Cc1ccccc1)C2=O (stereo not given) | -7 |
| CN1C(=O)c2cc(NC(=O)Nc3ccccc3)ccc2OC[C@H]2O[C@H](CC(=O)O)CC[C@@H]21 | -13[16.7 µM] |
| C[C@@H]1CN([C@@H](C)CO)C(=O)Cc2cc(NC(=O)c3ccncc3)ccc2O[C@H]1CN(C)Cc1ccc(Cl)c(Cl)c1 | 73*[16.7 µM] |
| COC(=O)[C@]12C[C@H](CC(=O)NCCc3ccccc3OC)C(=O)N(CCC3=CCCCC3)C1=C[C@H](C(C)(C)C)O[C@@H]2C | 61* |
| COC(=O)C1=C(C)N(C)C(=NCc2ccc3c(c2)OCO3)NC1c1cccc(C(F)(F)F)c1 (stereo not given) | 20 |
| O=C(NC[C@@H]1CC[C@H]2[C@H](CN2Cc2ccccc2F)O1)C1CCCCC1 | 4[16.7 µM] |
| CCCC#Cc1ccc2c(c1)O[C@@H](CN(C)S(=O)(=O)c1cccc(OC)c1)[C@H](C)CN([C@H](C)CO)S2(=O)=O | 16[16.7 µM] |
| CC(C)(C)S(=O)(=O)N1Cc2cc(CO)ccc2[C@@H]1CCO | -1 |
| CC=Cc1ccc2n(c1=O)C[C@@H]1[C@@H](CO)[C@H](C(=O)N3CCCCC3)[C@H]2N1C(=O)C1CCC1 (mixture of isomers) | -2[16.7 µM] |
| CCCNC(=O)N1C[C@H](C)[C@@H](OC)CN(C)C(=O)c2cc(NS(C)(=O)=O)ccc2OC[C@@H]1C | -28[16.7 µM] |
| C[C@H](CO)N1C[C@H](C)[C@@H](CN(C)C(=O)c2ccncc2)OCCCC[C@H](C)Oc2ccc(NC(=O)c3ccccc3)cc2C1=O | 3[16.7 µM] |
| CCCC(=O)Nc1ccc2c(c1)OC[C@H](C)N(Cc1ccccn1)C[C@H](C)[C@@H](OC)CN(C)C2=O | -3[16.7 µM] |

| canonical_smiles | HIV Env fusion |
| --- | --- |
| C[C@@H]1CN([C@H](C)CO)C(=O)Cc2cc(NC(=O)C3CC3)ccc2O[C@@H]1CN(C)C | -5[16.7 µM] |
| COC(=O)[C@]12C[C@H](CC(=O)N3CCSCC3)C(=O)N(CCC3=CCCCC3)C1=C[C@H](C(C)(C)C)O[C@@H]2C | 14 |
| C[C@@H]1CCCCO[C@@H](CN(C)C(=O)NC2CCCCC2)[C@@H](C)CN([C@@H](C)CO)C(=O)c2cc(NC(=O)c3ccccc3)ccc2O1 | -15[16.7 µM] |
| COCC(=O)Nc1ccc2c(c1)C(=O)N(C)C[C@H](OC)[C@@H](C)CN(Cc1cc(F)ccc1F)[C@@H](C)CO2 | 14[16.7 µM] |
| O=C(CNSc1ccc([N+](=O)[O-])cc1[N+](=O)[O-])OCc1ccccc1 | -2 |
| CCN(CC)C(=O)[C@H]1C[C@@H]2[C@H](C[C@@H](c3ccccc3)[C@H]1C)N(c1ccc(F)cc1)C(=O)N2CCCOc1ccccc1 | -29 |
| CN1C(=O)c2cc(NC(=O)c3cnccn3)ccc2OC[C@@H]2O[C@@H](CC(=O)NCC3CCCCC3)CC[C@H]21 | 14[16.7 µM] |
| CCNC(=O)Nc1ccc2c(c1)C(=O)N(C)[C@@H]1CC[C@H](CC(=O)N[C@@H](C)c3ccccc3)O[C@H]1CO2 | -46[16.7 µM] |
| CO[C@@H]1CN(C)C(=O)c2cc(NC(=O)Nc3cccc(F)c3)ccc2OC[C@H](C)N(C(=O)C2CC2)C[C@@H]1C | 33[16.7 µM] |
| Cc1ccc(S(=O)(=O)Nc2ccc3c(c2)C(=O)N([C@H](C)CO)C[C@@H](C)[C@@H](CN(C)C(=O)Nc2ccc4c(c2)OCO4)O3)cc1 | -19[16.7 µM] |
| CO[C@H]1CN(C)C(=O)c2cc(C#N)ccc2OC[C@H]2O[C@H](CC[C@H]2OC)CCN(C)C(=O)[C@@H]1C | 9[16.7 µM] |
| CN(C)c1ccc2c(c1)[C@H]1C[C@H](CC(=O)NCc3cc(F)ccc3F)O[C@@H](CO)[C@H]1O2 | 3[16.7 µM] |
| CCc1cc2c(nc1CC)CCCN2S(=O)(=O)c1c(C)noc1C | -7 |
| COC(=O)[C@]12C[C@H](CC(=O)N3CCN(C(=O)C4CC4)CC3)C(=O)N(Cc3ccccc3)C1=C[C@H](C(C)(C)C)O[C@@H]2C | -11 |
| C[C@H](CO)N1C[C@H](C)[C@@H](CN(C)C(=O)c2ccncc2)OCc2ccccc2-c2ccccc2C1=O | -1[16.7 µM] |

Printed as active in HIV Env fusion, of those listed so far:
| canonical_smiles | HIV Env fusion |
| --- | --- |
| S=C1NC2(CCCCCC2)NN1c1ccccc1 | 55* |
| C[C@@H]1CN([C@H](C)CO)C(=O)c2c(c3ccccc3n2C)-c2ccccc2CO[C@@H]1CN(C)S(=O)(=O)c1cccc(F)c1 | 95*[16.7 µM] |
| C[C@@H]1CN([C@@H](C)CO)C(=O)Cc2cc(NC(=O)c3ccncc3)ccc2O[C@H]1CN(C)Cc1ccc(Cl)c(Cl)c1 | 73*[16.7 µM] |
| COC(=O)[C@]12C[C@H](CC(=O)NCCc3ccccc3OC)C(=O)N(CCC3=CCCCC3)C1=C[C@H](C(C)(C)C)O[C@@H]2C | 61* |

The list goes on:
| canonical_smiles | HIV Env fusion |
| --- | --- |
| COc1ccc2c3c([nH]c2c1)[C@H](CO)N(CC1CCOCC1)CC31CN(C(=O)C2CC2)C1 | 1[16.7 µM] |
| C[C@@H](O)C#Cc1cnc2c(c1)C(=O)N([C@@H](C)CO)C[C@H](C)[C@H](CN(C)C(=O)Cc1ccncc1)O2 | -4[16.7 µM] |
| CO[C@@H]1CN(C)C(=O)c2ccc(NS(=O)(=O)c3ccccc3)cc2OC[C@H](C)N(Cc2cccnc2)C[C@H]1C | -7[16.7 µM] |
| COc1ccc(NC(=O)N(C)C[C@@H]2Oc3c(NS(=O)(=O)c4ccccc4)cccc3C(=O)N([C@@H](C)CO)C[C@H]2C)cc1 | 7[16.7 µM] |

A second format for part of the listing above.
Cc1ccc(S(=O)(=O)Nc2ccc3c(c2)C(=O)N([C@H](C)CO)C[C@@H](C)[C@@H](CN(C)C(=O)Nc2ccc4c(c2)OCO4)O3)cc1
  HIV Env fusion: -19[16.7 µM]
CO[C@H]1CN(C)C(=O)c2cc(C#N)ccc2OC[C@H]2O[C@H](CC[C@H]2OC)CCN(C)C(=O)[C@@H]1C
  HIV Env fusion: 9[16.7 µM]
CN(C)c1ccc2c(c1)[C@H]1C[C@H](CC(=O)NCc3cc(F)ccc3F)O[C@@H](CO)[C@H]1O2
  HIV Env fusion: 3[16.7 µM]

Not all compounds are listed; the hit share may differ from the screen's.
